Assay outcomes (PubChem)
AID504770 = growth inhibitors of E. coli YBA685 in a screen for V. cholerae RctB (chromosome II replication) inhibitors. E. coli YBA685 rctB-dependent plasmid, OD600 growth, 3 h; active compounds read low. z-score (no concentration beside the values). 0.27% of 130,000 active;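 active means z-score under -2 on both plates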;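 further: wells of about 30 µL received 100 nL stock; score is relative to mean and SD of the test wells; the first replicate is given; strong numbers were not always called active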
CapD inh = CapD enzyme inhibition; purified CapD enzyme, fluorescence intensity read-out; active compounds read low; some hits fall short of the stated cut; z-score (concentration not given with the values); 0.23% of 140,000 active; AID 492967;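 active means z-score under -4 in either of two replicates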;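 further: stock transfer was 100 nL into about 40 µL; score is relative to mean and spread of the plate; one replicate is shown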
An asterisk follows results filed as active; / = no result given; & = joins results of further samples.

SMILES	AID504770	CapD inh
Cc1ccc2nc(N3CCOCC3)c(/C=C3\SC(=S)NC3=O)c(=O)n2c1	1.2	-0.73
O=c1c(Cc2ccccc2)c(O)c2ccccc2n1-c1ccccc1	-0.35	12.6
C[C@@H]1CC2C3C[C@H](F)C4=CC(=O)C=CC4(C)C3(F)[C@@H](O)CC2(C)C1C(=O)COC(=O)C(C)(C)C (some centres undefined)	/	-0.345
COc1ccc(C2NC(c3ccc(OC)cc3)C(C)C(O)(Cc3ccccc3)C2C)cc1 (centres undefined)	1.25	-0.3
Cc1csc2c(NCCCN3CCOCC3)ncnc12	0.45	0.965
Cc1ccc(C(=O)[C@@H]2[C@@H](c3cccc4ccccc34)C(C#N)(C#N)[C@H]3C=Cc4cc(Cl)ccc4N23)cc1	/	-0.14
COc1ccc(S(=O)(=O)N(CC(=O)N2CCN(c3ccccc3)CC2)c2ccc(C)cc2)cc1OC	/	0.315
O=C1Nc2ccc(Br)cc2/C1=C/C(=O)c1ccc2c(c1)OCO2	0.9	0.88
Cc1[nH]c(-c2ccc(F)cc2)cc1C(=O)NCCc1ccc(S(N)(=O)=O)cc1	0.25	0.78
COCCOC(=O)C1=C(C)NC2=C(C(=O)CC(c3ccc(Cl)cc3)C2)C1c1ccccc1Br (centres undefined)	/	37.3
COc1cc(/C=C/C(=O)O)cc(Br)c1O	0.25	2.63
N#CC1(NC(=O)COC(=O)C2CC3CCCC(C2)C3=O)CCCC1 (centres undefined)	-0.3	/
O=C(c1ccc2c(c1)N(Cc1cccc(F)c1)C(=O)c1ccccc1S2)N1CCCCC1	1.15	1.57
COc1cc2c(cc1OC)C(c1ccc(Br)cc1)OC1=C2C(=O)c2ccccc21 (centres undefined)	/	-0.345
COc1ccccc1C(CC(=O)N1CCCC1)c1ccc2c(c1)OCO2 (centres undefined)	-0.05	-0.31
O=C(Cn1cnc2c(cnn2-c2ccccc2)c1=O)NCc1ccco1	-0.25	/
O=C1CN2C(SCc3ccc(Br)cc3)=Nc3ccccc3C2=N1	/	3.77
CC(c1ccccc1)n1c(SCCS(=O)(=O)c2ccc(F)cc2)n[nH]c1=O (centres undefined)	-0.35	-0.385
O=C1c2ccccc2S(=O)(=O)N1c1c(F)c(F)nc(F)c1F	/	0
Cc1ccc(Cn2nnnc2CN2CCC(NC(=O)C(C)(C)C)CC2)cc1	-0.45	/
Clc1cccc(Nc2nnc(Cc3cccnc3)c3ccccc23)c1	-0.55	-0.465
CCc1nc2ccccc2n1C(=O)c1cc2c(C)nn(-c3ccc(Cl)cc3)c2s1	0.2	/
Cc1cc(OC(=O)N(C)C)nc(-c2ccc(F)c(Cl)c2)n1	-0.15	0.285
O=C1OCC2=C1C(c1ccc3c(c1)OCO3)c1c(ccc3ccccc13)N2 (centres undefined)	4.25	/
C=C[C@H]1CN2CC[C@H]1C[C@H]2[C@H](O)c1ccnc2ccccc12	-0.6	-0.07

Brought forward from above: 6 compounds, then new ones.
SMILES	AID504770	CapD inh
Cc1ccc(Cn2nnnc2CN2CCC(NC(=O)C(C)(C)C)CC2)cc1	-0.45	/
Clc1cccc(Nc2nnc(Cc3cccnc3)c3ccccc23)c1	-0.55	-0.465
CCc1nc2ccccc2n1C(=O)c1cc2c(C)nn(-c3ccc(Cl)cc3)c2s1	0.2	/
Cc1cc(OC(=O)N(C)C)nc(-c2ccc(F)c(Cl)c2)n1	-0.15	0.285
O=C1OCC2=C1C(c1ccc3c(c1)OCO3)c1c(ccc3ccccc13)N2 (centres undefined)	4.25	/
C=C[C@H]1CN2CC[C@H]1C[C@H]2[C@H](O)c1ccnc2ccccc12	-0.6	-0.07
CNC(=O)c1cc(-c2ccccc2)c(N2CCOCC2)s1	-0.15	-1.68
O=C(O)Cn1nc(-c2ccccc2)oc1=O	-0.55	/
CCOc1c(Br)cc(C2C3=C(CC(C)(C)CC3=O)OC3=C2C(=O)CC(C)(C)C3)cc1OC	/	-0.22
O=C(/C=C/c1ccccc1)OC1CCOC1=O (centres undefined)	-0.25	0.22
CC(=O)Nc1ccc(S(=O)(=O)N2CCN(CCC#N)CC2)cc1	-0.45	1.06
O=C(CNc1ccccc1N1CCCCC1)Nc1ccc(S(=O)(=O)N2CCCCC2)cc1	1.55	/
O=C(NCc1cccnc1)/C(=C/c1cn(-c2ccccc2)nc1-c1ccc(Br)cc1)NC(=O)c1ccccc1	/	-0.755
CCN1CCN(c2cc(C)c3cc(NC(=O)CCC(=O)Nc4ccc5c(c4)OCCO5)ccc3n2)CC1	0.55	89.8
CCCCNC(=O)/C=C1\Sc2ccccc2NC1=O	0.15	-0.53
CNC(=O)Nc1ccccc1NC(=O)NC	0.15	0.345
CC(C)(C)C(=O)Nc1ccc(C(C)(C)C)cc1	-0.25	0.38
Cn1c2ccccc2c2cnn(CC(=O)N3CCc4ccccc43)c(=O)c21	-0.75	0.7
Clc1ccc2oc(-c3ccccc3)cc(=NCc3cccnc3)c2c1	1.55	-0.92
CS(=O)(=O)c1cccs1	-0.95	-0.185
COc1ccc(C2=NN(C(=O)CCCC(=O)O)C(c3cc4ccc(C)cc4nc3Cl)C2)cc1 (centres undefined)	/	0.3
O=C(Nc1cccc(Cl)c1)Nc1ccc(CSc2ccc(Cl)cc2)o1	0.15	-0.03
COC(=O)c1sc(C(F)(F)F)c(-c2ccccc2)c1S(=O)(=O)NC(C)(C)C	1.5	0.385
CN(C1CCCCC1)S(=O)(=O)c1ccc2ccccc2c1	-0.9	0.98
CC1C/C(=N/N=C2/NC(=O)CS2)CC(C)(C)C1 (centres undefined)	-0.9	0.05
CC1CCc2c(sc(NC(=O)c3ccc(Cl)s3)c2C#N)C1 (centres undefined)	-1.4	/
COc1ccc(Br)c(C(=O)Nn2c(-c3ccc(OC)c(OC)c3)nc3ccccc3c2=O)c1	/	-0.28
COc1ccccc1CNCC(O)(c1ccccc1)c1ccccc1	/	-0.055
CN1C(=O)CC(c2ccccc2)Nc2ccccc21 (centres undefined)	-0.2	0.51&-0.085
CCOC(=O)N1CCN(C(=O)c2ccc3c(=O)n(-c4ccc(OC)c(OC)c4)c(=S)[nH]c3c2)CC1	/	-0.43
Cc1cccc(C2(c3cccc(C)c3)CC2C(=O)Nc2ccc(I)cc2)c1 (centres undefined)	/	-0.11

2 compounds picked at random from the list so far, as already listed:
SMILES	AID504770	CapD inh
CNC(=O)Nc1ccccc1NC(=O)NC	0.15	0.345
O=C(CNc1ccccc1N1CCCCC1)Nc1ccc(S(=O)(=O)N2CCCCC2)cc1	1.55	/

Returning to the listing, repeating the seven entries before the break.
SMILES	AID504770	CapD inh
CC1C/C(=N/N=C2/NC(=O)CS2)CC(C)(C)C1 (centres undefined)	-0.9	0.05
CC1CCc2c(sc(NC(=O)c3ccc(Cl)s3)c2C#N)C1 (centres undefined)	-1.4	/
COc1ccc(Br)c(C(=O)Nn2c(-c3ccc(OC)c(OC)c3)nc3ccccc3c2=O)c1	/	-0.28
COc1ccccc1CNCC(O)(c1ccccc1)c1ccccc1	/	-0.055
CN1C(=O)CC(c2ccccc2)Nc2ccccc21 (centres undefined)	-0.2	0.51&-0.085
CCOC(=O)N1CCN(C(=O)c2ccc3c(=O)n(-c4ccc(OC)c(OC)c4)c(=S)[nH]c3c2)CC1	/	-0.43
Cc1cccc(C2(c3cccc(C)c3)CC2C(=O)Nc2ccc(I)cc2)c1 (centres undefined)	/	-0.11
c1ccc(-c2noc(-c3ccc4c(c3)OCO4)n2)cc1	1.3	0.69
O=C(NC1CCCC1)C1CCCN(C(=O)Nc2ccccc2)C1 (centres undefined)	-0.6	/
CN(C)c1nn(C(=O)c2ccccc2)cc1-c1ccc(Oc2ccccc2)cc1	/	-0.13
O=C(/C=C/c1ccco1)NCCc1ccccc1	-0.35	0.58
CCOc1ccc(NC(=O)c2cc(OC)nc3ccccc23)cc1	1.5	/
CC(C)CC(N)C(=O)N1CCOCCOCCOCC1 (centres undefined)	0.25	0.235
CCOc1ccc(N2CC(O)(c3ccc(OC)c(OC)c3)[N+]3=C2CCCC3)cc1 (centres undefined)	/	0.36
Oc1c(C(c2cccnc2)N2CCOCC2)ccc2cccnc12 (centres undefined)	0.25	/
CSC(=NC(=O)c1c(Cl)cccc1Cl)N1CCOCC1	0.35	0.945
Cc1oc2c(c1C(=O)O)C(=O)c1ccccc1C2=O	2.35	/
CCO/C=C1\C(=O)N(Cc2ccccc2)C(=O)c2ccccc21	1.15	2.86
COc1cc2c(cc1OC)C(C(=O)O)CC(=O)N2 (centres undefined)	1.3	4.85
COc1cc(NC(=O)c2sc3nc(C)nc(N4CCCCC4C)c3c2C)cc(OC)c1OC (centres undefined)	/	-0.755
CCCCCCCCN1c2ccccc2C(C)(C)C12C=Nc1c(ccc3ccccc13)O2 (centres undefined)	/	-0.24
O=S(=O)(CC(O)(c1ccccc1)c1ccccc1)c1cccc(C(F)(F)F)c1	0.6	0
CCn1c(C)nc2cc(-c3nnc4n3-c3ccccc3SC4)ccc21	-0.05	/
CC1(C)CC(NCC(=O)N2c3ccccc3Sc3ccc(Cl)cc32)CC(C)(C)N1	/	-0.055
N#CC1=C(N)N(c2ccc(Br)cc2F)C2=C(C(=O)CCC2)C1c1cccs1 (centres undefined)	/	-0.505
COC(=O)c1cccnc1-n1c(=O)[nH]c2ncccc2c1=O	-0.95	27.5
CCOc1cc(C2NC(=O)NC(C)=C2C(=O)OCc2ccc(OC)cc2)ccc1O (centres undefined)	/	1.13
COc1ccc(NC(=O)C(Cl)Cl)cc1	/	0.43
O=C(CSc1ccc(Cl)cc1)NCc1cccs1	/	-0.055
Cc1nc2ccn(Cc3ccccc3)c(=O)c2cc1C(=O)N1CCCC1	-0.8	102
Cc1cc(N2CCCC(O)C2)n2nc(C)c(-c3ccc(F)cc3)c2n1 (centres undefined)	0.3	/
O=C1c2ccccc2-c2onc3c(N4CCCCC4)cc(N4CCCCC4)c1c23	0.3	0.065
Next structures follow:
SMILES	AID504770	CapD inh
CC1CCCCN1C(=O)c1cccc2c1SCCC2=O (centres undefined)	-0.9	1.15
COC(=O)C1=C(N)OC2=C(C(=O)CC(c3ccccc3)C2)C1c1ccccc1OC (centres undefined)	/	0.2
CC1Cc2ccccc2N1C(=O)CSc1nnnn1C(C)C (centres undefined)	-0.2	/
CCCC(CCC)C(=O)Nc1cc(C(=O)O)cc(C(=O)O)c1	-0.4	5.98
O=C1C2CCCCC2C(=O)N1CC(=O)N1c2ccccc2Sc2ccc(C(F)(F)F)cc21 (centres undefined)	/	-0.145
CN(C)c1ncnc2c1[nH]c1ccccc12	-1.3	25.2
COc1cc(C=C2C(=O)N(C)C(=O)N(C)C2=O)ccc1OCCOc1ccccc1	/	-0.68
CCCN1CC=C2C(C1)C(c1ccc(C(=O)OC)cc1)C(C#N)=C(N)C2(C#N)C#N (centres undefined)	-0.5	/
Cc1ccc2c(=O)[nH]c(Cc3ccccc3C(=O)O)nc2c1	0.1	0.14
Cc1nnsc1C(=O)NC(=O)c1ccccc1O	0.45	1.16
O=C(O)C1CCC(CNc2cc(=O)oc3ccccc23)CC1 (centres undefined)	-0.3	0.05
COc1ccc2[nH]cc(CCNS(=O)(=O)c3cc(F)c(Br)cc3F)c2c1	/	0.14
CCCCOc1ccccc1/C=N/N=C(N)N	-1.4	/
N#C/C(=C\Nc1cccc(Cl)c1)S(=O)(=O)c1ccc(Cl)cc1	0.35	-0.01
COC(=O)Nc1ccc(S(=O)(=O)N2CCCC(C(=O)N(C)C3CCCCC3)C2)cc1 (centres undefined)	/	-0.18
O=C(COC(=O)/C=C/c1ccc(Br)o1)NC1CCCCCC1	0.7	/
Cc1cc(-c2ccco2)n(CC(=O)NCCN(C)C)n1	0.2	-0.295
CCOC(=O)C1CCCN(C(=O)CCNC(=O)Cn2ccc3ccccc3c2=O)C1 (centres undefined)	0.25	6.67
Cc1cccc2nc(COc3ccc(Cl)cc3)cn12	-0.55	0.235
CCOc1ccc(NC(=O)C(NC(=O)c2ccccc2)C23CC4CC(CC(C4)C2)C3)cc1 (centres undefined)	/	-0.12
Cc1ccccc1CS(=O)(=O)Cc1ccc(C(=O)Nc2noc3ccccc23)o1	0.35	0.465
Cc1oc2ccc(OC(=O)c3ccc(Br)cc3)cc2c1C(=O)OC(C)C	/	-0.19
CCCCNc1cc(C(=O)O)cc(S(N)(=O)=O)c1Oc1ccccc1	0.6	1.17&0.495
Cc1c(Cl)cccc1N/C=C(\[N+](=O)[O-])S(=O)(=O)c1ccccc1	/	-0.08
Cc1cc(NC(=O)Nc2ccccc2)c(C(F)(F)F)o1	-0.6	-0.14
Remaining list, next part
SMILES	AID504770	CapD inh
O=C1C(=O)N(CCCN2CCOCC2)C(c2ccccc2F)/C1=C(\O)c1ccccc1 (centres undefined)	/	-0.355
COc1ccc(CCC(=O)c2c(O)cc(O[C@@H]3O[C@H](CO)C(O)[C@H](O)C3O[C@@H]3O[C@@H](C)[C@H](O)[C@@H](O)[C@H]3O)cc2O)cc1O (some centres undefined)	0.55	-3.27
O=C(CCC1CCCCC1)Nc1c[nH]c(=O)[nH]c1=O	-2.15*	/
O=C(O)CCCC(=O)N1CCN(Cc2ccc3c(c2)OCO3)CC1	0.75	0.465
CC(Sc1nnc2c(n1)[nH]c1ccccc12)C(=O)NC(C)(C)C (centres undefined)	-0.15	/
CC(=O)c1cccc(N2C(=O)/C(=C/c3ccc(-c4ccc(Br)cc4)o3)C=C2c2ccccc2)c1	/	4.01
COc1cc(NC(=O)c2cc([N+](=O)[O-])ccc2N2CCCCC2)c2ncccc2c1	/	-1.05
CS(=O)(=O)c1ccc(N2CCC(C(=O)NCc3cccc(C(F)(F)F)c3)CC2)c(-n2cccc2)c1	/	-0.17
CCOc1ccc2nc(NC(=O)C3=NNC(=O)CC3)sc2c1	-0.15	/
